Screens as filed in PubChem.
rRNA inh HTS: reduced GFP signal of wild-type E. coli, primary screen, bacterial rRNA inhibitor project, GFP/RFP fluorescence, OD600, single point; E. coli WT GFP vs humanized-ribosome RFP mutants, 24 h; hits give low values; DMSO median 0, no signal -100; GFP signal change (wild-type ribosome), % (concentration not given with the values); actives 1.6% (n = 350,000);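 active = significant combined selectivity score with lowered wild-type GFP, culture density cut under 30%, mutant RFP and density less affected; inactive = any of these conditions unmet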; also: one replicate is shown; some compounds called inactive have numbers as strong as hits
AF4-AF9 inh: inhibitors of AF4 peptide binding to AF9, primary screen, biochemical, AlphaScreen, biotin-AF4 peptide, FLAG-AF9, single point | Protein AF-9 (Homo sapiens), P42568 | inhibition, % at 10 µM | actives 0.47% (n = 350,000) | AID 651704, 2012;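 active = every replicate reaching a set inhibition limit, whatever the replicate mean, cut at about 25% in these data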;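 also: 0% = plate neutral control median and 100% = total signal loss; the record names both 10 and 1 µM as test concentration; the first replicate is given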
Target sequence (P42568 whole entry, looked up): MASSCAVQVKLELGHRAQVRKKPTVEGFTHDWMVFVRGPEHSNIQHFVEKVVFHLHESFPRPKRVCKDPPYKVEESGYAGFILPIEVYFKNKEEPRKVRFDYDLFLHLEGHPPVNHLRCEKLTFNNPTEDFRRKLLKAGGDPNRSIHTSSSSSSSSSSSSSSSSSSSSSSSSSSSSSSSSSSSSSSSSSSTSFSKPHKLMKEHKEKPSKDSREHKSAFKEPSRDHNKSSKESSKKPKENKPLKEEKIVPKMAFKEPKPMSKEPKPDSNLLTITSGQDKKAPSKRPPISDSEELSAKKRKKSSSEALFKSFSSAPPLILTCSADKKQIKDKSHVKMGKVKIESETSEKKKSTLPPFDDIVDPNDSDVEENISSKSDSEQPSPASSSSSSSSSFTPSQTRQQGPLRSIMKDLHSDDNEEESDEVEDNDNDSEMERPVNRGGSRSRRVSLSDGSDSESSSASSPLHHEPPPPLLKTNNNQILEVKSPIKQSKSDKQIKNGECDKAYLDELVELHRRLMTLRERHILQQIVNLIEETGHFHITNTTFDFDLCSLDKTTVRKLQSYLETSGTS
FGF22 binding: binders of human FGF22 protein, primary screen, FGF22 synaptogenesis inhibitor project, biophysical, thermal shift, single point; Fibroblast growth factor 22 (Homo sapiens), Q9HCT0; recombinant FGF22 thermal shift, SYPRO orange fluorescence; percent of sucrose octasulfate shift, DMSO zero; calls only at 9.99 µM; actives 1.5% (n = 340,000); AID 651658, 2012;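 active = melting point raised past a set limit in the mean and every replicate; three in four hits are not shown here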
Target sequence (Q9HCT0 whole entry, looked up): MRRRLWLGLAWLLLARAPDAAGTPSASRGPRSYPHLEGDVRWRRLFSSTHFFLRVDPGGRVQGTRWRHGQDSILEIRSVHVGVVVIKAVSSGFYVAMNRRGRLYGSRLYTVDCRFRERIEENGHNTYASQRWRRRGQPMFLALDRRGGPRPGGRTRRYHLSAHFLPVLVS
rRNA inh HTS OD600: recorded beside rRNA inh HTS, whose call it bears; OD600 change, %; measured here: OD600 growth;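 optical density of the mix in the first replicate; 0 = DMSO median and -100 = no signal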
rRNA inh HTS RFP: recorded beside rRNA inh HTS, whose call it bears; RFP signal change, %; measured here: RFP humanized mutant strains;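 first replicate; 0 = DMSO median and -100 = no signal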
An asterisk follows results filed as active; i = inactive. These rows are one share of the data (hit frequency here may not be typical).

Preview (5 entries):
Each structure is followed by: rRNA inh HTS | rRNA inh HTS OD600 | rRNA inh HTS RFP | AF4-AF9 inh | FGF22 binding
> CCCNC(=O)N1C[C@@H](O)COC[C@H]2O[C@@H](CC(=O)N3CCCCC3)CC[C@@H]21
  2 | 2 | 0.7 | -1.3 | i
> COc1ccc2c3c([nH]c2c1)[C@@H](CO)N(Cc1cc(F)ccc1F)CC31CCN(C(C)=O)CC1
  4 | 5 | 2.0 | 1.5 | i
> CC(=O)Nc1ccc2sn(-c3ccccc3)c(=O)c2c1
  -11 | -2 | 0.0 | -12 | i
> C[C@H]1CN([C@@H](C)CO)C(=O)c2cc(-c3cccc(F)c3)cnc2O[C@@H]1CN(C)C(=O)C1CCC1
  -3 | -3 | 5.0 | -4.6 | i
> COCCNC(=O)C1(C)CCCN(C(=O)CCc2ccccc2)C1 (stereo not given)
  10 | 9 | 4.5 | -2.8 | i

This part in full, from the first entry:
Each structure is followed by: rRNA inh HTS | rRNA inh HTS OD600 | rRNA inh HTS RFP | AF4-AF9 inh | FGF22 binding
> CCCNC(=O)N1C[C@@H](O)COC[C@H]2O[C@@H](CC(=O)N3CCCCC3)CC[C@@H]21
  2 | 2 | 0.7 | -1.3 | i
> COc1ccc2c3c([nH]c2c1)[C@@H](CO)N(Cc1cc(F)ccc1F)CC31CCN(C(C)=O)CC1
  4 | 5 | 2.0 | 1.5 | i
> CC(=O)Nc1ccc2sn(-c3ccccc3)c(=O)c2c1
  -11 | -2 | 0.0 | -12 | i
> C[C@H]1CN([C@@H](C)CO)C(=O)c2cc(-c3cccc(F)c3)cnc2O[C@@H]1CN(C)C(=O)C1CCC1
  -3 | -3 | 5.0 | -4.6 | i
> COCCNC(=O)C1(C)CCCN(C(=O)CCc2ccccc2)C1 (stereo not given)
  10 | 9 | 4.5 | -2.8 | i
> O=C(C[C@H]1CC[C@@H](NC(=O)c2cnccn2)[C@H](CO)O1)NCc1ccccc1F
  1 | 3 | -1.7 | -5.7 | i
> NS(=O)(=O)c1ccc(CCNC(=O)CSc2nc3ccsc3c(=O)n2Cc2ccccn2)cc1
  18 | 0 | 3.9 | 1.0 | i
> COc1ccc(-c2cnc3c(c2)C(=O)N([C@@H](C)CO)C[C@@H](C)[C@@H](CN(C)C)O3)cc1
  1 | 1 | -4.5 | -9.9 | i
> CC(C)CC#Cc1ccc([C@@H]2[C@@H](CO)N3C(=O)CN(C(=O)c4cccc(F)c4)C[C@H]23)cc1
  0 | -26 | 2.2 | 4.4 | i
> CCCCOCCCNC(=O)C[C@@H]1C[C@@]2(C(=O)OC)CCCCC=C2N(Cc2cccc3ccccc23)C1=O
  -4 | -4 | 6.6 | 2.0 | i
> CCc1nc2c(OCCOc3ccccc3)cccn2c1N(C)C(=O)c1ccc(C)cc1
  -12 | -38 | 3.8 | 4.2 | i
> C[C@@H]1CN([C@@H](C)CO)S(=O)(=O)c2ccc(C3=CCCC3)cc2O[C@@H]1CN(C)C(=O)c1cccnc1
  -2 | -5 | 1.0 | -2.0 | i
> CN(C)CC#Cc1ccc([C@H]2[C@@H](CO)N3CCCCN(C(=O)Nc4ccc(F)cc4)C[C@H]23)cc1
  8 | -6 | 1.1 | 5.1 | i
> O=C(Nc1cccc(Cl)c1)N1C[C@@H]2[C@H](c3ccccc31)[C@@H](CO)N2C(=O)C1CC1
  -42 | -53 | -8.6 | -22 | i
> COc1ccc(S(=O)(=O)N(C)C[C@H]2OCCCC[C@H](C)Oc3ccc(NC(=O)Nc4cccc5ccccc45)cc3C(=O)N([C@H](C)CO)C[C@@H]2C)cc1
  1 | 1 | -3.4 | -13 | i
> CN(C)CCCNC(=O)[C@@H]1[C@@H](CO)[C@@H]2Cn3c(ccc(C4=CCCCC4)c3=O)[C@H]1N2Cc1cocn1
  -1 | -7 | 2.3 | -0.1 | i
> Cc1cc(C(=O)NCC2CCCO2)sc1C (stereo not given)
  -1 | 4 | -4.2 | -1.0 | i
> Cc1ccsc1C(=O)N1CCC1(C)C(=O)NS(=O)(=O)c1cccc(F)c1 (stereo not given)
  -2 | 9 | -6.5 | -1.3 | i
> c1ccc2sc(-n3cc(C4CCCCC4)nn3)nc2c1
  3 | 1 | -2.9 | -2.5 | i
> COc1ccc(CN(C)C[C@H]2Oc3ccc(NC(=O)Cn4cnnn4)cc3C(=O)N([C@H](C)CO)C[C@@H]2C)cc1
  0 | 1 | -0.2 | 0.3 | i
> Clc1ncnc2[nH]ccc12
  9 | 5 | -0.3 | 1.7 | i
> COc1ccc([C@H]2CN(CCc3ccccc3)C(=O)[C@@H]2CC(=O)Nc2ccccc2)cc1
  -6 | -18 | -1.1 | 1.9 | i
> CCS(=O)(=O)NCC[C@@H]1CC[C@@H](NC(=O)Nc2cc(Cl)cc(Cl)c2)[C@H](CO)O1
  -2 | -5 | 3.2 | -3.4 | i
> CCCS(=O)(=O)NC(=O)C1(C)CCCN(C(=O)c2cc(C)n(C(C)(C)C)n2)C1 (stereo not given)
  10 | 11 | -0.7 | -0.7 | i
> C[C@@H]1CN([C@H](C)CO)S(=O)(=O)c2ccc(-c3ccccc3F)cc2O[C@@H]1CN(C)Cc1ccncc1
  -42 | -64 | 13 | 8.0 | i
> CC(=O)N(C)C[C@@H]1Oc2ncc(/C=C/c3ccccc3)cc2C(=O)N([C@@H](C)CO)C[C@H]1C
  -2 | 6 | -2.5 | 1.4 | i
> COc1ccc2c3c(n(C)c2c1)[C@H](CO)N(C(C)=O)CC31CCN(C(=O)c2cnccn2)CC1
  -1 | 1 | -1.3 | -3.0 | i
> Cc1ccc(S(=O)(=O)N(CCCc2c(C)nc[nH]c2=O)c2ccccc2)cc1
  5 | -5 | 1.5 | 3.6 | i
> CN1CCN(C(=O)C[C@H]2C=C[C@H](NS(=O)(=O)c3cccc(F)c3)[C@@H](CO)O2)CC1
  0 | 6 | -0.8 | -1.7 | i
> Cc1ccc(Nc2nc(Cl)nc3ncn(C)c23)c(C)c1
  -36* | -17* | -12* | -2.2 | i
> Cc1ccc(S(=O)(=O)N(C)C[C@@H]2Oc3c(NC(=O)Nc4c(C)noc4C)cccc3C(=O)N([C@@H](C)CO)C[C@H]2C)cc1
  1 | 2 | -2.8 | -1.5 | i
> C[C@@H]1CCCCO[C@H](CN(C)C(=O)c2ccccc2)[C@H](C)CN([C@@H](C)CO)C(=O)c2cc(NC(=O)Nc3ccc(C(F)(F)F)cc3)ccc2O1
  -3 | 5 | -2.2 | 0.2 | i
> COc1ccccc1C(CNC(=O)CN1C(=O)NC(C)(c2ccc3ccccc3c2)C1=O)N1CCCC1 (stereo not given)
  0 | 4 | 6.4 | 1.1 | i
> C[C@H]1CN([C@@H](C)CO)S(=O)(=O)c2ccc(-c3cncnc3)cc2O[C@H]1CN(C)C(=O)Cc1ccccc1
  -2 | -6 | -2.5 | 6.6 | i
> NC(CCc1ccccc1)c1csc(Nc2ccc(C(=O)NCCCO)cn2)n1 (stereo not given)
  -1 | -2 | 11 | 4.6 | i
> CCCNC(=O)N1[C@H](C#N)[C@@H](c2ccccc2-c2ccc(C)cc2)[C@@H]1CO
  2 | -47 | -4.7 | -1.5 | i
> COC(=O)c1ccc(N2C(c3cccc(OC)c3)=Cc3ccc(F)cc3C2c2c(C)[nH]c3ccccc23)cc1 (stereo not given)
  -21 | -68 | 1.8 | 0.0 | i
> CC1(C)COC(c2cc3c(cc2Br)OCO3)OC1
  5 | -2 | -1.7 | -4.2 | i
> Cc1cn(CC(=O)NCc2ccccc2)c(=O)[nH]c1=O
  5 | 7 | -2.0 | -8.5 | i
> CO[C@H]1CN(C)C(=O)c2ccc(NS(C)(=O)=O)cc2OC[C@H](C)N(C(=O)NC(C)C)C[C@@H]1C
  -1 | 1 | 0.3 | -1.0 | i
> O=C(OCc1cn([C@@H]2CN(C(=O)C3CCCCC3)[C@@H](c3ccc(Cl)cc3)C[C@H]2O)nn1)c1ccccc1
  -15 | -23 | 2.0 | -0.5 | i
> Oc1c(Cl)cc(Cl)c(Cl)c1CN1CCOCC1
  -7 | -8 | -3.1 | -2.3 | i
> C[C@H](CO)N1C[C@H](C)[C@@H](CN(C)C(=O)c2ccccc2F)Oc2cc(-c3ccc(F)cc3)ccc2S1(=O)=O
  -7 | -12 | -0.9 | 1.9 | i
> C[C@H]1CN([C@@H](C)CO)C(=O)c2cccc(NS(=O)(=O)c3ccc(F)cc3)c2O[C@@H]1CN(C)Cc1ccc(C(=O)Nc2ccccc2N)cc1
  2 | 2 | -2.0 | 0.3 | i
> COc1ccc(-c2cnc3c(c2)C(=O)N([C@H](C)CO)C[C@@H](C)[C@@H](CN(C)C(=O)C2CCC2)O3)cc1
  4 | 14 | -1.5 | -2.0 | i
> CCc1cccc(CC)c1N1C(=O)C2=C(SCCCS2)C1=O
  -3 | -24 | -1.9 | -9.8 | i
> CC(C)(C)[S@](=O)N1Cc2cc(C(=O)N3CCOCC3)nc(-c3cccc(-c4ccccc4F)c3)c2[C@@H]1CCO
  -4 | -3 | 3.2 | -1.8 | i
> CC1(C2CCC3(C)OC3C2)CO1 (stereo not given)
  0 | 12 | 17 | -3.2 | i
> CCC(=O)N1CCCCN2[C@@H](CO)[C@H](c3ccc(/C=C/c4ccccc4)cc3)[C@@H]2C1
  -59 | -73 | -10 | 12 | i
> C[C@H](CO)N1C[C@H](C)[C@H](CN(C)Cc2ccccc2)Oc2ccc(NC(=O)CCC(F)(F)F)cc2CC1=O
  1 | 4 | -2.9 | -2.5 | i
> C[C@@H]1CN([C@@H](C)CO)C(=O)c2cc(NS(=O)(=O)c3cn(C)cn3)ccc2O[C@@H](C)CCCCO[C@H]1CN(C)C(=O)c1ccncc1
  3 | 3 | 0.3 | -7.5 | i
> CC1(C(=O)NS(=O)(=O)c2ccc(F)cc2F)CCN1C(=O)C/C=C/c1ccccc1 (stereo not given)
  -1 | 11 | -0.5 | -3.3 | i
> CC1(C)N=C(N)N=C(N)N1c1ccc(OCC(=O)N2CCOCC2)cc1
  5 | 1 | -4.6 | -3.0 | i
> Cc1noc(C)c1S(=O)(=O)N(C)C[C@@H]1OCc2ccccc2-c2ccccc2C(=O)N([C@@H](C)CO)C[C@@H]1C
  -1 | 4 | -0.5 | -6.9 | i
> Cc1noc(C)c1S(=O)(=O)Nc1ccc2c(c1)C(=O)N([C@H](C)CO)C[C@@H](C)[C@@H](CN(C)C(=O)Cc1ccccc1)OCCCC[C@@H](C)O2
  -2 | -5 | -0.6 | 2.6 | i
> COc1ccc(NC(=O)N(C)C[C@@H]2Oc3c(NC(=O)NC(C)C)cccc3C(=O)N([C@H](C)CO)C[C@@H]2C)cc1
  0 | 1 | 2.0 | -7.1 | i
> COCC(=O)N1C[C@@H](C)[C@H](OC)CN(C)C(=O)c2ccc(NC(=O)c3ccc(F)cc3)cc2OC[C@H]1C
  2 | 7 | -1.2 | -1.1 | i
> C[C@H](C(=O)N(C)C[C@@H]1OCc2ccccc2-c2ccccc2C(=O)N([C@H](C)CO)C[C@H]1C)c1ccccc1
  -3 | 7 | -2.3 | -1.5 | i
> O=C(Cc1cccnc1)N[C@H]1CC[C@@H](CCn2cc(Cc3ccccc3)nn2)O[C@H]1CO
  0 | -5 | -0.1 | -1.1 | i
> COc1ccc2c3c([nH]c2c1)[C@H](CO)N(C(=O)c1ccncc1)CC31CCN(Cc2cccnc2)CC1
  0 | 11 | 0.0 | 3.0 | i

More records follow:
Each structure is followed by: rRNA inh HTS | rRNA inh HTS OD600 | rRNA inh HTS RFP | AF4-AF9 inh | FGF22 binding
> Cc1ccc(S(=O)(=O)N(C)C[C@@H]2Oc3ccc(N(C)C)cc3CC(=O)N([C@@H](C)CO)C[C@@H]2C)cc1
  0 | 4 | 0.8 | -1.4 | i
> C[C@H](CO)N1C[C@H](C)[C@H](CN(C)S(=O)(=O)c2cccs2)Oc2ccc(NC(=O)C3CC3)cc2CC1=O
  2 | 0 | 0.5 | -3.6 | i
> C[C@H](NC(=O)C[C@@H]1CC[C@H](NC(=O)CN2CCOCC2)[C@@H](CO)O1)c1ccccc1
  3 | 4 | 0.8 | -0.5 | i
> CO[C@@H]1CN(C)C(=O)c2ccc(NC(=O)c3ccccc3F)cc2OC[C@H](C)N(C(C)=O)C[C@H]1C
  0 | 0 | -3.0 | 0.9 | i
> CC(C)NC(=O)N(C)C[C@H]1Oc2ccc(N(C)C)cc2C(=O)N([C@@H](C)CO)C[C@@H]1C
  2 | 7 | -0.6 | -3.5 | i
> C/C=C/c1ccc([C@@H]2[C@@H](CO)N(C(C)=O)[C@H]2CNC(=O)c2ccccc2)cc1
  -3 | -5 | -0.3 | 0.5 | i
> C[C@@H]1CCCCO[C@H](CN(C)C(=O)Nc2ccc3c(c2)OCO3)[C@@H](C)CN([C@@H](C)CO)C(=O)c2cc(N(C)C)ccc2O1
  -2 | 3 | -1.3 | 5.0 | i
> CC(C)(O)C#Cc1ccc([C@@H]2[C@H](CO)N3CCCCN(C(=O)c4ccc(F)cc4)C[C@@H]23)cc1
  3 | 22 | -5.1 | -12 | i
> COc1ccc(NC(=O)N(C)C[C@H]2Oc3c(NC(=O)c4cc(C)nn4C)cccc3C(=O)N([C@H](C)CO)C[C@@H]2C)cc1
  3 | 11 | 3.0 | 0.5 | i
